Beta2AR agonist = human beta-2 adrenergic receptor agonism by FAP; Am2.2-beta2AR cells, FAP receptor internalization, flow cytometry; reference of the scale not given here; 0.43% of 340,000 active; response, % (no concentration beside the values); AID 504454;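 active = response above a set limit, near 3 SD of response in nonfluorescent compounds, cut at about 42% in these data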;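 also: stock transfer was 100 nL into about 11 µL; a reference agonist was the positive control; negative values mostly stem from fluorescent compounds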
Target sequence (P07550 whole entry, looked up): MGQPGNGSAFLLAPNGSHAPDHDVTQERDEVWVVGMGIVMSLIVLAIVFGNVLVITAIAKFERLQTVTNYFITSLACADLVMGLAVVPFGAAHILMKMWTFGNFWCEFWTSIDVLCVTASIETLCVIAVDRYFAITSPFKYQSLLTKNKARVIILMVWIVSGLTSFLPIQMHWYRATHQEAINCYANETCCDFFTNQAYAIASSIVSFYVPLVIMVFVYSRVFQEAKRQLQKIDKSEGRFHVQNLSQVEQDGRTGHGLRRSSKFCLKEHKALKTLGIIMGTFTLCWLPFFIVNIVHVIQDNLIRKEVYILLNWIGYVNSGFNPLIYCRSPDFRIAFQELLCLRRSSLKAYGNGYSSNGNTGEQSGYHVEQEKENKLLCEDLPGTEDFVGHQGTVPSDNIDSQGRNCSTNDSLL
Calb FLC = affects C. albicans growth with fluconazole | C. albicans CaCi-2 (fluconazole-resistant clinical isolate) + fluconazole, Alamar Blue growth, 48 h | growth inhibition, % (concentration not given with the values) | 0.57% of 300,000 active | AID 1979;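 active = most replicates above 75%; inconclusive = exactly half above 75%; inactive = most below 75%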;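 also: all wells also contain fluconazole at 8 µg/ml as a sub-toxic cotreatment; 0% = median of DMSO wells and 100% = median of geldanamycin control wells; wells of about 8 µL received 7.5 nL stock; the first replicate is given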
ALR inh = inhibitors of human sulfhydryl oxidase ALR; P55789; purified ALR, DTT oxidation, H2O2 HRP-luminol luminescence; inhibition, % (test concentration not listed); 3.8% of 290,000 active; AID 485317;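 active = mean and each replicate at 75% or more; inconclusive = only one of the two met; inactive = neither met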;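 also: stock transfer was 7.5 nL into about 7.5 µL; 0% = neutral wells and 100% = wells with inactivated enzyme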
RanGTP-Impb inh = inhibitors of RanGTP-importin-beta interaction, primary screen, biochemical, FRET, CFP-Ran, YFP-importin-beta, homogeneous; cell-free CFP-Ran/YFP-importin-beta FRET ratio; inhibition, % (test concentration not listed); 1.1% of 300,000 active; AID 2216;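 active = most replicates above 15%; inconclusive = exactly half above 15%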;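 also: 0% = DMSO wells and 100% = Ran loaded with GDP instead of GTP; wells of about 40 µL received 100 nL stock; the first replicate is given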
LANA-H2A inh = blocks KSHV LANA binding to histone H2A/H2B. Q9QR71. cell-free LANA-H2A/H2B peptide, fluorescence polarization. inhibition, % (no concentration beside the values). 0.6% of 320,000 active. AID 2629; in the data active = inhibition mostly above about 10%, no sharp cut-off; inactive = mostly below about 6.7%;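 also: stock transfer was 7.5 nL into about 10 µL; 0% = median of vehicle wells and 100% = median of positive control wells; one replicate is shown; the record names a cut of 25% in any replicate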
Vif A3G = HIV-1 Vif–A3G interaction blockers – biochemical, TR-FRET, GST-Vif 1-94, biotin-A3G peptide, dose response retest, primary screen (AID 1117319); 0.57% of 260,000 active; one-dose inhibition, %; IC50 in µM for titrated hits; TR-FRET GST-Vif / biotin-A3G peptide binding; higher % means a stronger effect; test concentration not given here; strong numbers were not always called active;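 active = above the screen mean plus three standard deviations and confirmed in dose response; inconclusive = results disagree or hit not tested in dose response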;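 also: Vif residues 1-94 fused to GST binding biotinylated APOBEC3G peptide 110-148; 0% = full assay without inhibitor and 100% = GST in place of GST-Vif; retest series ran down from 100 µM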
HNF4A DNA FP = change in binding of human HNF4 alpha to DNA; P41235; HNF4a-FITC DNA binding, fluorescence polarization, 1 h; activity change, % at 10 µM; 0.3% of 360,000 active; in the data active = activity change above about 30%, passing the limit was not always enough;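 also: controls were the assay level and a saturating level of protein; the project sought stronger binding though the title names inhibitors; some compounds called inactive have numbers as strong as hits; positive values seem to mean higher polarization but the record does not say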
Target sequence (P41235 whole entry, looked up): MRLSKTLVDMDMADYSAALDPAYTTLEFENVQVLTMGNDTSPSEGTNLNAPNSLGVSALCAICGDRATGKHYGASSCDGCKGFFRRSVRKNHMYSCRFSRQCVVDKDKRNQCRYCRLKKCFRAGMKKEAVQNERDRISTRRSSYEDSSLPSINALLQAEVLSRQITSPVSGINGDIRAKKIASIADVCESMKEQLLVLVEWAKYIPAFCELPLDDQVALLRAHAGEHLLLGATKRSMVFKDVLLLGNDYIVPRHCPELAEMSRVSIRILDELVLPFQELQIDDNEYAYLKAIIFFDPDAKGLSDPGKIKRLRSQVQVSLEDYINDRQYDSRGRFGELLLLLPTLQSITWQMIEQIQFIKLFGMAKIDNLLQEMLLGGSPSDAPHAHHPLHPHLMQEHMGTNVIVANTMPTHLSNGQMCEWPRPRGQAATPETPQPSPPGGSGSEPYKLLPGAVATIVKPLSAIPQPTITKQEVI
Starred values were filed as active, the others as inactive; ? = inconclusive; / = no result given.

Compound	Beta2AR agonist	Calb FLC	ALR inh	RanGTP-Impb inh	LANA-H2A inh	Vif A3G	HNF4A DNA FP
CC(=O)c1c(C)[nH]c(C(=O)OCC(=O)N2CC(=O)Nc3ccccc32)c1C	5	-10	-3	4.5	0.4	/	-1.1
O=C(Nc1ccc2c(c1)OCO2)c1noc2c1CCCC2	-6	-20	/	1.0	-0.1	/	5.4
NC(=O)c1cccc2cc3ccccc3cc12	-4	21	-11	-1.1	1.0	-6%	0.3
Cc1nn(C)c(C)c1Sc1ccc(Br)cc1	-2	-14	-1	?	-1.7	?	-4.1
Cc1ccc(NC(=O)CNC(=O)c2ccc3c(c2)OCO3)nc1	-4	1	0	-3.9	2.8	/	0.1
Cc1cccc(OCCSc2nnc(-c3ccoc3C)n2C)c1	1	-7	53	5.5	0.8	5%	0.8
COc1cccc(-c2nc(CS(=O)(=O)CC(=O)NCc3ccc4c(c3)OCO4)c(C)o2)c1	-7	-5	95*	-0.7	-3.3	/	4.1
Cc1ccc(-c2[nH]nc3c2C(c2ccsc2)C(C#N)=C(N)O3)cc1 (configuration not stated)	12	4	-6	3.1	6.3	-6%	-3.3
CCOc1ccc(NS(=O)(=O)c2ccc(C)c(C(=O)NCCCn3ccnc3)c2)cc1	10	-8	1	-2.8	0.0	0%	-2.4
Cc1cccc(NS(=O)(=O)c2cc3c4c(c2)CCC(=O)N4CCC3)c1	-3	-2	-1	4.1	-3.0	0%	-0.1

Random excerpt: 2 compounds from above, in no set order.
Compound	Beta2AR agonist	Calb FLC	ALR inh	RanGTP-Impb inh	LANA-H2A inh	Vif A3G	HNF4A DNA FP
COc1cccc(-c2nc(CS(=O)(=O)CC(=O)NCc3ccc4c(c3)OCO4)c(C)o2)c1	-7	-5	95*	-0.7	-3.3	/	4.1
CC(=O)c1c(C)[nH]c(C(=O)OCC(=O)N2CC(=O)Nc3ccccc32)c1C	5	-10	-3	4.5	0.4	/	-1.1

Some of these compounds in order of their number in Beta2AR agonist, lowest first:
canonical_smiles	Beta2AR agonist
COc1cccc(-c2nc(CS(=O)(=O)CC(=O)NCc3ccc4c(c3)OCO4)c(C)o2)c1	-7
Cc1cccc(NS(=O)(=O)c2cc3c4c(c2)CCC(=O)N4CCC3)c1	-3
Cc1ccc(-c2[nH]nc3c2C(c2ccsc2)C(C#N)=C(N)O3)cc1 (configuration not stated)	12

Further entries
Compound	Beta2AR agonist	Calb FLC	ALR inh	RanGTP-Impb inh	LANA-H2A inh	Vif A3G	HNF4A DNA FP
COC(=O)/C(C#N)=C/c1occc1C	1	-2	-1	-0.5	-1.0	-2%	-1.4
CCOc1ccccc1-c1nnc(SCC(=O)NC2CC3CCC2C3)n1CC (configuration not stated)	-4	-12	-5	-1.0	1.1	2%	-2.4
O=C(CSC1=Nc2ccccc2C2CC=NN12)NCc1ccco1 (configuration not stated)	14	/	99*	/	3.7	2%	6.5
COc1cccc(NCCC(=O)c2cccc([N+](=O)[O-])c2)c1	-5	-2	97*	2.9	7.7	/	-1.8
CC(=O)Nc1ccc2c(COC(=O)[C@H](C)N3C(=O)C4CCCCC4C3=O)cc(=O)oc2c1 (some centres not stated)	5	10	0	-0.8	3.0	30%	1.5
C=CCNc1sc(C(=O)C(C)(C)C)c(N)c1C#N	-2	20	3	-0.4	0.1	1%	0.0
Cc1ccc(C2CC(c3ccccc3Cl)n3nc(N)nc3N2)cc1 (configuration not stated)	1	-1	9	0.3	1.0	3%	1.5
CN(C)S(=O)(=O)c1ccc(NC(=O)CN2CCCc3ccccc32)cc1	5	-7	-6	-9.5	-3.2	8%	20
CC(=O)c1c(C)[nH]c(C(=O)COC(=O)CCNS(=O)(=O)c2ccc(C)c(C)c2)c1C	5	/	-3	/	0.3	/	1.4
COc1cc(C(=O)N/N=C/c2sc(N3CCOCC3)nc2-c2ccccc2)cc(OC)c1OC	1	9	-4	-2.2	-0.3	-3%	1.7

(next part)
Compound	Beta2AR agonist	Calb FLC	ALR inh	RanGTP-Impb inh	LANA-H2A inh	Vif A3G	HNF4A DNA FP
Cc1ccc(C(=O)NNS(=O)(=O)c2ccc(F)cc2)cc1	0	-7	12	9.7	-0.8	38%	-1.6
Cc1ccc(OCc2nnc(SCC(=O)NCc3ccco3)n2C)cc1	-5	0	2	-1.2	1.3	9%	-2.0
CCOc1cc(/C=C/c2ccc3cccc([N+](=O)[O-])c3n2)ccc1OCC(=O)N(C)C	9	-4	-17	-1.7	-2.5	4%	0.3
CCCCCc1cc(=O)oc2c(C(CCN3CCCC(C)C3)c3ccc(OC)cc3)c(OC)cc(OC)c12 (configuration not stated)	34	1	-37	6.8	-1.3	8%	2.9
O=C(NNC(=O)c1cc2cc3ccccc3nc2s1)c1cccc(Cl)c1	2	-2	-2	0.0	-1.0	3%	-9.3
Nc1nc(-c2ccccc2)cc(-c2ccccc2O)n1	1	71	0	-2.6	1.0	-4%	0.4
CC(=NCC1CCCO1)C1=C(O)CC(C)(C)CC1=O (configuration not stated)	-4	4	-2	2.5	-5.5	13%	-0.9
COC(=O)C1CCCN1C(=O)COc1ccc(Br)cc1Cl (configuration not stated)	7	-14	44	-1.9	1.7	28%	-0.1
O=C(c1cccc(F)c1)N1CCCN(C(=O)c2cccc(F)c2)CC1	-2	-14	-4	-1.1	2.7	-2%	0.5
CCN(CC)C(=O)C(C)OC(=O)c1ccc(O)cc1 (configuration not stated)	3	-7	-3	-4.8	-0.1	-8%	2.3

Remaining list, next part.
Compound	Beta2AR agonist	Calb FLC	ALR inh	RanGTP-Impb inh	LANA-H2A inh	Vif A3G	HNF4A DNA FP
Cc1cc(NC(=O)CSCC(=O)N2CCN(c3cccc(C(F)(F)F)c3)CC2)no1	-4	-1	-3	3.4	2.2	3%	0.8
Cc1cccc(C)c1NC(=O)C1CC(=O)N(C(C)C)C1 (configuration not stated)	-2	-13	-8	-1.5	3.2	-4%	0.8
Cc1cccc(OCc2nnc(SCC(=O)NCCc3ccccc3)o2)c1	-13	23	-1	?	18	3%	-4.3
CCOc1ccc(NC(=O)Cn2c(=O)n(CCCC(=O)NC3CCN(Cc4ccccc4)CC3)c(=O)c3ccccc32)cc1	3	-1	-11	-4.7	1.7	/	1.5
CC(C)N(C(=O)CSc1nc2ccccc2n1Cc1ccc(F)cc1)C(C)C	18	-1	-5	-0.6	-2.4	-1%	7.7
C=CCn1c(SCc2ccccc2Cl)nnc1-c1sc2nc(C)cc(C)c2c1N	110*	-2	1	-1.0	-0.9	1%	-2.2
CC1CCN(C(=O)CSc2nnc(Cc3cccn3C)n2CCc2ccccc2)CC1	1	2	/	-3.7	-0.1	16%	-1.0
c1ccc(C[C@H]2CNCCN2CCC23CC4CC(CC(C4)C2)C3)cc1	26	-8	7	3.7	3.2	/	3.5
c1ccc(-c2nnc(OCC3CCCO3)c3ccccc23)cc1 (configuration not stated)	0	31	2	-3.6	-3.4	-9%	3.3
CC(C)NC(=O)Nc1cccc(Cl)c1	-1	-1	-6	-3.5	0.2	/	-4.3

Reformatted field by field: entries from further up
C=CCn1c(SCc2ccccc2Cl)nnc1-c1sc2nc(C)cc(C)c2c1N
  Beta2AR agonist = 110*
  Calb FLC = -2
  ALR inh = 1
  RanGTP-Impb inh = -1.0
  LANA-H2A inh = -0.9
  Vif A3G = 1%
  HNF4A DNA FP = -2.2
CC1CCN(C(=O)CSc2nnc(Cc3cccn3C)n2CCc2ccccc2)CC1
  Beta2AR agonist = 1
  Calb FLC = 2
  ALR inh = /
  RanGTP-Impb inh = -3.7
  LANA-H2A inh = -0.1
  Vif A3G = 16%
  HNF4A DNA FP = -1.0
c1ccc(C[C@H]2CNCCN2CCC23CC4CC(CC(C4)C2)C3)cc1
  Beta2AR agonist = 26
  Calb FLC = -8
  ALR inh = 7
  RanGTP-Impb inh = 3.7
  LANA-H2A inh = 3.2
  Vif A3G = /
  HNF4A DNA FP = 3.5
c1ccc(-c2nnc(OCC3CCCO3)c3ccccc23)cc1 (configuration not stated)
  Beta2AR agonist = 0
  Calb FLC = 31
  ALR inh = 2
  RanGTP-Impb inh = -3.6
  LANA-H2A inh = -3.4
  Vif A3G = -9%
  HNF4A DNA FP = 3.3

(further entries)
Compound	Beta2AR agonist	Calb FLC	ALR inh	RanGTP-Impb inh	LANA-H2A inh	Vif A3G	HNF4A DNA FP
Cc1c(Cl)c(C(F)(F)F)nn1CC(=O)NCc1ccco1	-3	4	-4	-0.2	-2.6	2%	-2.8
COC(=O)c1cc(NC(=O)CSC2=NCCS2)cc(C(=O)OC)c1	-10	-36	98*	-0.1	2.3	-5%	-0.9
O=C(O)c1cn(-c2ccccc2)nc1-c1ccc(Cl)cc1	-14	43	73	0.0	5.0	0%	-1.7
Cc1cccc(NC(=O)C(C)SCc2nc3sc4c(c3c(=O)[nH]2)CCCC4)n1 (configuration not stated)	19	2	62	-5.4	-2.4	0%	17
COc1ccc(OCCCC(=O)Nc2ccc3c(c2)OCCO3)cc1	-4	-21	-4	1.8	1.1	-2%	4.6
C/C(=N\NC(=O)c1ccccc1OCc1ccc(F)cc1)c1ccccn1	36	/	/	/	5.1	-14%	3.0
O=C(O)c1cc(NC(=O)c2ccco2)cc(NC(=O)c2ccco2)c1	-7	-4	/	6.9	-0.2	/	-2.4
O=C(Oc1ccc([N+](=O)[O-])cc1)c1ccc2ccccc2n1	2	13	9	2.3	-0.9	8%	1.9
O=C(NCCn1cccn1)C1CCC(=O)N(CCc2ccccc2)C1 (configuration not stated)	0	7	-2	-4.2	3.6	/	-0.7
O=C(NC1CC2CCC(C1)N2C(=O)NCc1ccccc1)C1CC1 (configuration not stated)	6	-5	/	-2.4	2.4	-1%	-2.5

Later entries.
Compound	Beta2AR agonist	Calb FLC	ALR inh	RanGTP-Impb inh	LANA-H2A inh	Vif A3G	HNF4A DNA FP
COc1ccc2c(c1)cc(C)c1nnc(SCC(=O)N(C)c3nc(-c4ccccc4)cs3)n12	-8	-6	-6	-0.8	-4.6	1%	-0.2
CC(C)=CCN1CCN(Cc2cccn2-c2ncccn2)CC1CCO (configuration not stated)	-6	-7	0	0.9	/	0%	0.3
CC1CC(C)CN(CCCNC(=O)c2ccc(CNS(=O)(=O)c3ccc(F)cc3)cc2)C1 (configuration not stated)	10	-1	-14	1.9	3.3	/	-0.6
O=C(CNC(=O)c1cccs1)N/N=C/c1ccc(O)cc1O	2	26	74	0.8	-4.7	7%	-0.5
CCCCNC(=O)c1ccccc1NC(=O)C1=C(C)OCCS1	-6	7	0	2.3	1.7	-3%	2.8
CCOc1ccc(NC(=O)N(O)C2(C#N)CCCCC2)cc1	-3	/	/	/	/	-9%	3.7
O=C(C(Cl)Cl)N1c2ccccc2OCC1c1ccccc1 (configuration not stated)	6	-6	-21	0.6	-2.2	4%	-0.9
CNC(=O)c1ccc(NC(=O)CN2c3cccc4cccc(c34)S2(=O)=O)cc1	3	/	-20	-4.2	-3.5	-1%	0.7
Cc1ccc(NC(=O)c2ccc([N+](=O)[O-])cc2)cc1S(=O)(=O)N(C)C	2	8	-8	6.7	-1.7	10%	-2.5
CSc1ccccc1NC(=O)CN1CCCCC1C (configuration not stated)	6	4	-4	2.4	1.0	-2%	-0.9
Cc1[nH]n(-c2cccc([N+](=O)[O-])c2)c(=O)c1-c1ccccc1	3	13	89*	-4.8	-6.6	6%	0.1
